# Mtb betalactam = beta-lactam sensitization of Mtb H37Rv; M. tuberculosis H37Rv growth with meropenem, percent inhibition; hits of this screen are not shown here; inhibition, % at 25 µM; 330,000 compounds, 0.27% hits;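 active = about 74% or more and at least 40 points above the plate without the antibiotic, then above 30% in a dose series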;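 also: growth measured after seven days incubation then overnight dye step; 0% = bacteria only wells and 100% = bacteria with antibiotic; twin plates without the antibiotic show which effects depend on it; some results filed as inactive read as strong as hits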
# Mtb growth = M. tuberculosis H37Rv growth inhibitors, H37Rv strain (AID 1626) | M. tuberculosis H37Rv growth inhibition; higher % means a stronger effect | one-dose inhibition, % at 10 µM; IC50 in µM for titrated hits | 220,000 compounds, 0.95% hits;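 active = confirmed in a dose series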;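 also: bacteria incubated seven days before Alamar blue readout; 0% = bacteria only wells and 100% = bacteria with antibiotic wells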
# YopH inh = blocks Yersinia enterocolitica YopH tyrosine phosphatase. AID 898. fluorescence Ex485/Em525. inhibition, %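 (about 10 µM by stock and volumes)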. 140,000 compounds, 0.16% hits;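 active = inhibition of 50% or more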;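 also: controls were vehicle for no effect and minimum signal wells for full effect; inactives centre near -20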
# Arbovirus anti = antivirals against arbovirus infection | arbovirus infection cell-based antiviral screen | inhibition, % at 10 µM | 200,000 compounds, 0.37% hits | AID 1251;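 active = inhibition from about 30%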;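 also: bluetongue infection of BSR cells; cell survival read as ATP light after 72 h; 0% = infected wells without compound and 100% = uninfected wells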
# RecA splice inh = Mtb RecA intein splicing inhibition | P9WHJ3 | cell-free RecA intein splicing, fluorescence | inhibition, %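 (about 9 µM by stock and volumes)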 | 290,000 compounds, 0.75% hits | AID 2221; in the data active = inhibition above about 30%;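 also: 0% = vehicle wells and 100% = reference inhibitor control wells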
# Target sequence (P9WHJ3 whole entry, looked up, canonical isoform): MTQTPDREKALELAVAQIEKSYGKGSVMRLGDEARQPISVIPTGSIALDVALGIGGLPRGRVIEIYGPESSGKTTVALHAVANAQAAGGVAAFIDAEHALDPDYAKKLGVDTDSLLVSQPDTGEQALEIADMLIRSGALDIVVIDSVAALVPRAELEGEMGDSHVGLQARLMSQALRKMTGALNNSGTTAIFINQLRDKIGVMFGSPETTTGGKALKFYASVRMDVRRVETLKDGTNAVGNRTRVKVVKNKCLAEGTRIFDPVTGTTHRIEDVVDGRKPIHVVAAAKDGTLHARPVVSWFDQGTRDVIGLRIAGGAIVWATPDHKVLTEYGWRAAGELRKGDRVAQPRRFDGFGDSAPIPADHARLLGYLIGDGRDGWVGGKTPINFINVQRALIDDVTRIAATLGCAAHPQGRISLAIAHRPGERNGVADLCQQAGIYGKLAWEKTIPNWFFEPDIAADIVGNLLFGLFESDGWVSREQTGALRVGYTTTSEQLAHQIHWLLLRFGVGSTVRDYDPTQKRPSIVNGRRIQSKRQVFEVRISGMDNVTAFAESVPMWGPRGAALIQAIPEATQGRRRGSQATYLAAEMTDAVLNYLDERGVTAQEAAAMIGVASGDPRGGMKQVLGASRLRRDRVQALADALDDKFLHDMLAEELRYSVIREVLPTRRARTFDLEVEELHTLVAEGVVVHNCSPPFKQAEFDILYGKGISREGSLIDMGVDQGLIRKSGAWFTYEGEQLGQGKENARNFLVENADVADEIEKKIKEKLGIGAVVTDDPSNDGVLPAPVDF
# Arbovirus anti repeat = also measured in Arbovirus anti; calls as there; inhibition, %; measured here: 10K subset replicate screen; many hits read low in the repeat;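 first of two repeat runs on a subset; 0% = infected and 100% = uninfected wells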
# Starred values were filed as active, the others as inactive; / = no result given. These rows are one share of the data (hit frequency here may not be typical).
SMILES,Mtb betalactam,Mtb growth,YopH inh,Arbovirus anti,RecA splice inh,others
O=C(Cn1cc(C(F)(F)F)cc(Cl)c1=O)Nc1ccc(N2CCOCC2)cc1,-10,-1%,/,7,-1.0,
CN(Cc1c(C(=O)N/N=C/c2cc(F)ccc2F)nnn1-c1nonc1N)C1CCCCC1,1,/,/,/,-1.7,
CC(=O)c1ccc(NC(=S)NNC(=O)c2ccccc2[N+](=O)[O-])cc1,-3,-6%,/,2,-3.9,
Cc1cc(O)c(/C=N/Nc2ccccc2Cl)c(=O)o1,-5,3%,-42,-15,-5.8,
Cc1ccc(S(=O)(=O)c2cc3ccccc3nc2N)cc1,-9,-2%,/,10,-2.6,
COc1cc(-c2c(C#N)c(N)nc3c2CCCC3)ccc1O,-7,4%,-10,-9,-0.2,
COc1ccc(CNC(=O)COc2ccc(F)cc2)cc1,-7,10%,/,-4,-4.1,
CN1C2CCC1CC(NC(=O)c1ccc([N+](=O)[O-])cc1)C2 (stereo unspecified),2,/,/,/,-2.8,
Cc1noc(C)c1COC(=O)c1cc(=O)[nH]c2ccccc12,-4,-1%,-38,5,/,
O=C(N/N=C/C(Cl)=C/c1ccccc1)c1ccccc1F,3,/,/,/,-0.7,
CC(C)CNS(=O)(=O)c1cc(C(=O)OC2CCOC2=O)c(Cl)cc1Cl (stereo unspecified),-4,/,/,/,-1.2,
N#C/C(=C(/O)CCl)c1nc(-c2ccccc2)cs1,21,-2%,/,/,11,

# Grouped by structure: the compounds so far containing four or more nitrogen atoms (2)
SMILES,Mtb betalactam,Mtb growth,YopH inh,Arbovirus anti,RecA splice inh,others
CN(Cc1c(C(=O)N/N=C/c2cc(F)ccc2F)nnn1-c1nonc1N)C1CCCCC1,1,/,/,/,-1.7,
CC(=O)c1ccc(NC(=S)NNC(=O)c2ccccc2[N+](=O)[O-])cc1,-3,-6%,/,2,-3.9,

# Carrying on:
SMILES,Mtb betalactam,Mtb growth,YopH inh,Arbovirus anti,RecA splice inh,others
C[C@@H](N)C(=O)NC[C@H]1CC[C@H](C(=O)N[C@@H](Cc2ccccc2)C(=O)O)CC1,3,/,/,/,-2.1,
O=C(N/N=C/c1cccc([N+](=O)[O-])c1O)C(O)(c1ccccc1)c1ccccc1,-1,/,/,/,0.0,
CCc1nnc(NC(=O)CCC(=O)NCc2ccccc2OC)s1,2,-3%,-160,3,-1.9,
O=C(Nc1ccc(Cl)cc1)/C(=C1\CCCN1)[N+](=O)[O-],-4,4%,/,/,-0.8,
O=C(O)C12CC3CC(C1)CC(n1ncc(NCc4ccccc4)c(Cl)c1=O)(C3)C2,2,-5%,/,4,1.5,
CCC(=O)/C(=C(/O)c1ccccc1)c1nc2ccccc2[nH]1,-1,3%,/,10,1.8,
COCCn1nnnc1C(c1ccccc1OC)N1CCc2ccccc2C1 (stereo unspecified),6,-1%,3,/,3.4,
Cc1cc(C(=O)CSc2nc3ccc(Cl)cc3[nH]2)c(C)n1CC1CCCO1 (stereo unspecified),-9,-2%,-15,9,-2.3,
N#CC1(NC(=O)COC(=O)Cc2n[nH]c(=O)c3ccccc23)CCCCC1,3,/,/,/,0.1,
Cn1c(=O)c2[nH]c(N/N=C(/C#N)C(N)=O)nc2n(C)c1=O,5,2%,/,/,-124,
CCCC(=O)Nc1cnc(NC(=O)c2cccc(F)c2)cc1C,2,-23%,3,3,2.1,
Cc1ccccc1C(=O)NNC(=O)CSc1nnc(C)n1-c1ccccc1,1,-6%,-24,-10,-0.4,

# Among those listed so far, these have a nitro group on carbon.
SMILES,Mtb betalactam,Mtb growth,YopH inh,Arbovirus anti,RecA splice inh,others
CC(=O)c1ccc(NC(=S)NNC(=O)c2ccccc2[N+](=O)[O-])cc1,-3,-6%,/,2,-3.9,
CN1C2CCC1CC(NC(=O)c1ccc([N+](=O)[O-])cc1)C2 (stereo unspecified),2,/,/,/,-2.8,
O=C(N/N=C/c1cccc([N+](=O)[O-])c1O)C(O)(c1ccccc1)c1ccccc1,-1,/,/,/,0.0,
O=C(Nc1ccc(Cl)cc1)/C(=C1\CCCN1)[N+](=O)[O-],-4,4%,/,/,-0.8,

# Following part:
SMILES,Mtb betalactam,Mtb growth,YopH inh,Arbovirus anti,RecA splice inh,others
Cc1ccc(N2C(=O)SC(N(CC(=O)O)c3cccc(C)c3)C2=O)cc1 (stereo unspecified),6,0%,-38,4,-5.8,
C=CCN(c1ccccc1)S(=O)(=O)c1cccc(C(=O)NCC(c2cccs2)N2CCOCC2)c1 (stereo unspecified),4,/,/,/,2.9,
COc1ccc(S(=O)(=O)N(C)C)cc1NC(=O)CSc1nc(N)cc(N)n1,-8,-8%,/,/,-0.8,
CC(OC(=O)c1ccc2c(c1)OCCO2)C(=O)NC1CCCCC1C (stereo unspecified),0,/,/,/,-0.7,
Cc1ccc(C)c(Cn2cnc3c(nnn3-c3ccc(F)cc3)c2=O)c1,-5,10%,-32,-1,-1.4,
CC1(C)CC(=O)c2sc(NC(=O)c3cccs3)nc2C1,-3,-8%,-20,-3,-1.8,
Cc1c(Cl)cccc1NC(=S)N1CCN(Cc2ccc3c(c2)OCO3)CC1,3,3%,-24,0,/,
COC(=O)C1=C(C)NC(C)=C(C(=O)OC)C1c1ccc(NC(C)=O)cc1,-1,-9%,-5,4,1.7,
CCOc1cc(C(=S)N2CCOCC2)ccc1OC(=O)c1cc(OC)c(OC)c(OC)c1,-1,/,/,/,0.1,
COc1cc2cc(C(=O)N3CCOCC3)cc(-c3ccc(C)cc3)c2cc1OC,31,/,/,/,0.2,
COc1ccc(CN(CC2CCC(C(=O)O)CC2)C(=S)Nc2ccccc2OC)cc1 (stereo unspecified),2,9%,/,3,1.2,
O=C(OCC(=O)N1CCc2ccccc21)c1cccc(S(=O)(=O)N2CCCc3ccccc32)c1,4,-8%,-22,5,-1.6,
COc1cc(OC)cc(-c2nnc(NC(=O)CCS(=O)(=O)c3ccc(F)cc3)o2)c1,48,/,/,/,0.0,
CC(=O)Nc1ccccc1NC(=O)COc1cccc2ccccc12,-4,/,/,/,0.7,
CC(=O)N1CCN(c2ccccc2NC(=O)c2cc3ccccc3o2)CC1,6,/,/,/,-3.7,
c1ccc(NCc2cccc3ccccc23)nc1,7,/,/,/,0.9,
c1ccc(-n2ncc3c2ncn2nnnc32)cc1,6,2%,-36,6,0.5,
CC(=O)NNC(=O)C(O)(c1ccccc1)c1ccccc1,-10,-3%,-14,4,-3.7,
Cc1cccc(N(C(=O)c2snc(C(N)=O)c2N)C(C(=O)NCC2CCCO2)c2ccc(N(C)C)cc2)c1 (stereo unspecified),38,/,/,/,-0.8,
CCCC(=O)NC(Nc1cccc(C(F)(F)F)c1)C(Cl)(Cl)Cl (stereo unspecified),-4,-2%,-20,-9,3.2,
Cc1cc(N2CCN(C)CC2)nc2ccc(NC(=S)NCCC(C)C)cc12,51,/,/,/,-2.5,
Clc1ccc(CNCC2CCCO2)c(Cl)c1 (stereo unspecified),-5,/,/,/,1.0,
CCCC(=O)c1ccc(N2CCN(C(=O)c3ccccc3Br)CC2)c(F)c1,0,17%,-22,-15,8.2,
N#CC1=C(N)OC2=C(C(=O)CCC2)C1c1cccs1 (stereo unspecified),6,-10%,/,1,-2.1,

# 6 records picked at random from the list so far, as already listed:
SMILES,Mtb betalactam,Mtb growth,YopH inh,Arbovirus anti,RecA splice inh,others
CC(=O)N1CCN(c2ccccc2NC(=O)c2cc3ccccc3o2)CC1,6,/,/,/,-3.7,
Clc1ccc(CNCC2CCCO2)c(Cl)c1 (stereo unspecified),-5,/,/,/,1.0,
N#CC1=C(N)OC2=C(C(=O)CCC2)C1c1cccs1 (stereo unspecified),6,-10%,/,1,-2.1,
CC(=O)Nc1ccccc1NC(=O)COc1cccc2ccccc12,-4,/,/,/,0.7,
CC(=O)NNC(=O)C(O)(c1ccccc1)c1ccccc1,-10,-3%,-14,4,-3.7,
CCCC(=O)NC(Nc1cccc(C(F)(F)F)c1)C(Cl)(Cl)Cl (stereo unspecified),-4,-2%,-20,-9,3.2,

# The list goes on:
SMILES,Mtb betalactam,Mtb growth,YopH inh,Arbovirus anti,RecA splice inh,others
C=CCN1CN(Cc2ccco2)CNC1=S,-4,5%,-23,-4,-1.3,
CCOC(=O)c1c(-c2ccc(C)cc2)csc1NC(=O)C1CC=CCC1C(=O)O (stereo unspecified),-2,/,-13,35*,0.6,
O=C(CN1C(=O)C2C3CCC(C3)C2C1=O)OCC(=O)c1ccc(Br)cc1 (stereo unspecified),-10,/,/,/,-2.2,
CCN1C(=O)C(O)(CC(=O)c2ccc3c(c2)OCCO3)c2ccccc21 (stereo unspecified),0,-8%,/,-15,2.1,Arbovirus anti repeat=-9
N/C(Cc1ccc([N+](=O)[O-])cc1)=N\OC(=O)c1ccc(Br)o1,3,1%,-25,2,-0.1,
CCOC(=O)c1oc2ccc3c(c2c1C)C(=O)CC1(CCN(C(=O)OCC)CC1)O3,-5,3%,-32,-6,0.2,
O=C(/C=C/c1cn(-c2ccccc2)nc1-c1cccnc1)N1CCCCC1,-1,1%,/,-15,3.5,
CN(C)Cc1c(C(=O)N/N=C/c2cccc(OCc3ccc(F)cc3)c2)nnn1-c1nonc1N,2,/,/,/,-2.3,
Cc1nnc(SCSc2nnc(C)s2)s1,-12,3%,-1,1,-3.9,
O=C(c1ccc(C(F)(F)F)cc1)N1CCC(=O)N(C(COCc2ccc(Cl)cc2)Cc2ccccc2)CC1 (stereo unspecified),7,10%,-11,-29,15,
CC1CN(Cc2ccccc2)c2nc3c(c(=O)n(CC(N)=O)c(=O)n3C)n2C1 (stereo unspecified),-15,/,/,/,2.5,
COc1ccc(CCNC(=O)c2ccco2)cc1OC,-9,5%,/,4,1.8,
O=C(NC1CCS(=O)(=O)C1)c1cccc(S(=O)(=O)N2CCCC2)c1 (stereo unspecified),1,2%,/,-1,0.4,
COc1cc(C2C(C#N)=C(C)NC3=C2C(=O)CC(C)(C)C3)ccc1OCCO (stereo unspecified),0,-4%,-48,4,/,Arbovirus anti repeat=2
COc1ncnc2c1NC(=O)CS2,-13,6%,-37,2,5.6,
CCOC(=O)C1(Cc2cccc(OC)c2)CCCN(Cc2c(C)nn(C(C)C)c2C)C1 (stereo unspecified),-12,-6%,/,/,-0.5,
CC(=O)Nc1sc2c(c1CN1CCN(c3ccc(F)cc3)CC1)CCCC2,99,13µM*,-18,19,7.8,
CCOC(=O)C1CCN(c2nc3ccccc3nc2C(C#N)C(=O)OC(C)C)CC1 (stereo unspecified),-12,10%,-27,-1,-69,
COc1cc(-c2nnc(SCC(=O)N(C)C3CCS(=O)(=O)C3)o2)cc(OC)c1OC (stereo unspecified),11,-1%,/,5,-5.6,
CCCCCCSC1=C(C#N)C(c2ccccc2)CC(=O)N1 (stereo unspecified),12,-10%,-47,-9,1.2,
CCc1ccc(CN(C)C(=O)CCc2nnc(CCc3cccc(OC)c3)o2)nc1,1,7%,/,5,/,
Cc1ccc(NC(=O)CSC2=C(C#N)C(c3ccco3)CC(=O)N2)cc1 (stereo unspecified),8,3%,-26,-8,-1.4,
Cc1cccc(N2C(=O)C3C4C=CC(C4)C3C2=O)c1 (stereo unspecified),-11,-6%,-38,10,-1.1,
CC(C)CNC(=O)N[C@@H](CC(C)C)C(=O)O,-1,5%,/,/,-3.7,
Cc1ccc(S(=O)(=O)N2CCC(NC(=O)C3CCCCC3)CC2)cc1,7,/,/,/,-2.0,
COc1ccc(N2CCN(C(=O)CSc3nnc(-c4cccnc4)n3-c3ccccc3)CC2)cc1,-7,-5%,-33,-6,0.4,
C=CCN=C1SC(C)(C)C(=O)N1S(=O)(=O)c1ccc(C)cc1,1,3%,/,-3,9.1,
Cc1cc(CN(C)C)c(O)c(C2(C)CCCCC2)c1,-19,-4%,17,12,1.2,
Cc1nnc(NC(=O)CC(CN(C)S(=O)(=O)c2ccccc2)c2ccccc2)s1 (stereo unspecified),-3,4%,-43,1,3.6,
O=C(O)c1ccc(CNC(=O)C23CC4CC(CC(C4)C2)C3)cc1,-7,/,/,/,-1.3,
COc1cc(C(=O)OCc2ccc([N+](=O)[O-])cc2)cc(OC)c1OC,3,-2%,/,-17,-0.3,
O=C(NCc1cccs1)C1CCC(=O)N1C1CCCCC1 (stereo unspecified),5,0%,-35,-2,-0.2,
COc1ccc(C(=O)NN/C(C)=C/C(=O)c2ccccc2)cc1,-3,/,/,/,-2.5,
COc1cccc(OC)c1C(=O)Nn1c(C2CCC2)nc2ccccc2c1=O,-4,-4%,-27,8,0.6,
O=C(/C=C/c1cccc(Cl)c1)c1nc2ccccc2[nH]1,100,2.9µM*,-35,-25,1.0,

# Arranged by SMILES length (lowest first): 3 of the compounds above
SMILES,Mtb betalactam,Mtb growth,YopH inh,Arbovirus anti,RecA splice inh,others
Cc1ccccc1C(=O)NNC(=O)CSc1nnc(C)n1-c1ccccc1,1,-6%,-24,-10,-0.4,
O=C(O)c1ccc(CNC(=O)C23CC4CC(CC(C4)C2)C3)cc1,-7,/,/,/,-1.3,
CCOC(=O)c1c(-c2ccc(C)cc2)csc1NC(=O)C1CC=CCC1C(=O)O (stereo unspecified),-2,/,-13,35*,0.6,

# Screens: PubChem BioAssay, several laboratories
